Screening data from PubChem BioAssay.
Menin MLL FP FL: inhibitors of human menin-MLL interaction, wild-type MLL peptide | Fluorescence polarization, fluorescein-MLL peptide displacement from menin | FP activity change, % at 61.4 µM | 290,000 tested, under 10 active; inconclusive = falling polarisation curve, or a change in total fluorescence; inactive = total fluorescence flat and polarisation flat or rising; no compound was filed as active; the % refers to the polarisation; negative = inhibition;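 further: % of control where 0% means no effect; inhibitors lower the polarisation; unlabelled MLL peptide was the positive control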
Sfp inh: Sfp phosphopantetheinyl transferase inhibition; Biochemical Sfp PPTase activity, qHTS; Potency, µM, without a hit: max response, negative = inhibition, most hits filed as inhibitors; 310,000 compounds, 3.5% hits; AID 1490; active means well fitted inhibition curve with a large enough effect; inconclusive means small, poorly fitted or top-dose-only effect, or another doubt; inactive means no such curve, though single readings can be large or run the other way;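 further: the enzyme is Sfp with the accession as filed and its product quenches rhodamine fluorescence; potency means the concentration at half of the fitted maximal effect; 0% = enzyme reaction without inhibitor and -100% = no enzyme wells; top concentration of the series not given in the record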
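After 15 min at room temperature with compound, 15 nM Sfp received 5 uM rhodamine-CoA plus 12.5 uM BHQ-2-ybbR (50 mM Hepes pH 7.6, 10 mM MgCl2). Rate came from the fluorescence difference over 30 min, ex 525/em 598 nm.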
TRPML1 inh: human mucolipin-1 channel inhibition; Q9GZU1; TRPML1-inducible cells, Ca2+ dye fluorescence, FDSS; stronger effect = lower value; inhibition of EC80 agonist-evoked calcium signal; AID 624415; activity change, negative = inhibition, % (test concentration not listed); 390,000 compounds, 0.02% hits; in the data active means activity change below about -50%; inconclusive means about -30% to -50%; inactive means above about -30%;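 further: stimulus is agonist 54-4 at its EC80 concentration; on the % scale 0 is the no-effect control and ±100 the full control effect; compound concentration not given in the record; the text of the record puts the active cut at -80%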
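TRPML1-DL cells, Tet-induced overnight (~16 h, 37 °C) at 1,500 cells/well, were loaded with Ca8 no-wash dye plus quencher for 45-90 min at room temperature. Compounds were pinned during FDSS kinetic reading; agonist 54-4 at EC80 (4 uM final) then added.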
TRPML1 ag: human mucolipin-1 channel agonism; AID 624414; Q9GZU1; TRPML1-expressing cells, Ca2+ dye fluorescence, FDSS; host cell line not named in the record; reference of the full effect not given here; activation, % (concentration not given with the values); 410,000 compounds, 0.12% hits; in the data active = activation above about 50%; inconclusive = about 30% to 50%; inactive = below about 30%; further: 0% is about no effect; the text of the record puts the active cut at 80%
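Cells: TRPML1-DL, 1X Tet inducer, ~16 h at 37 degrees C/5% CO2. Dye: ABD Ca8 no-wash + quencher, 45-90 min RT. Read: 10 s baseline, compound add, 110 s agonist phase; 54-4 EC80 (4uM final), 110 s antagonist phase.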
TRPV1 potentiator: enhances activation of the human vanilloid receptor TRPV1. Q8NER1. AID 540277. TRPV1-expressing cells, Fluo-8 calcium influx, capsaicin EC20 potentiation; host cell line not named in the record; control for the full effect not named in the record. 320,000 compounds, 0.02% hits. potentiation, % at 8.33 µM; active means potentiation above 80%; inconclusive means 30% to 80%; inactive means below 30%; further: 0% is about no effect
Target sequence (Q8NER1 whole entry, looked up): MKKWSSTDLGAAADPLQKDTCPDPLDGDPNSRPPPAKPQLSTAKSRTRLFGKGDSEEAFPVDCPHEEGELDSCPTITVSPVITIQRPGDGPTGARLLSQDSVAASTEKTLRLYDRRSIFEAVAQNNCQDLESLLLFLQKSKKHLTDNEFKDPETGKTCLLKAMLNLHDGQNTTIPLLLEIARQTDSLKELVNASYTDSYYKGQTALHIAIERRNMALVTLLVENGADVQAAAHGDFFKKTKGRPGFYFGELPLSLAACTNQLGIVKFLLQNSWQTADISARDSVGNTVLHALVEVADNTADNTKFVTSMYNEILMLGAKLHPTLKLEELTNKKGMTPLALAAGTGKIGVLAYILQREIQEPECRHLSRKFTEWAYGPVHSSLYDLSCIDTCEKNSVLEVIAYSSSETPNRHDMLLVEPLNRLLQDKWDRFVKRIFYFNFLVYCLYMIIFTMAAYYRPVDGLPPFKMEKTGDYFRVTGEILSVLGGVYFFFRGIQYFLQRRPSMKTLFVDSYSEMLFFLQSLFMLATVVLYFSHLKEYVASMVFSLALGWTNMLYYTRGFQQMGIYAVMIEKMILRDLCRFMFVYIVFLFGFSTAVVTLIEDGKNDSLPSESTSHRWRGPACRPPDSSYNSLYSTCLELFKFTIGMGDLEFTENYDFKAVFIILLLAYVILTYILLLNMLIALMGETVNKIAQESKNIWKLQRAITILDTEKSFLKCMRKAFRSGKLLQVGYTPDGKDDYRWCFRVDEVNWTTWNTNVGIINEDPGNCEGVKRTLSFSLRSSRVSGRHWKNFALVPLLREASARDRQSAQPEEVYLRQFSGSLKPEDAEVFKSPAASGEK
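Cells expressing TRPV1 were dye-loaded with Fluo-8 and read kinetically: 10 s baseline, 3 min after compound (agonist portion), then 2 min after EC20 capsaicin (allosteric enhancer portion). Calcium-bound dye fluorescence at 480/520 nm.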
ClpP mod: qHTS Assay for Activators of ClpP; purified B. subtilis ClpP, FRET peptide cleavage, 20 min; Potency, µM (doses to about 57.5 µM), inactives show at the highest dose activity change, negative = active; 340,000 compounds, 1.9% hits; ATP-dependent Clp protease proteolytic subunit (Bacillus subtilis (strain 168)), P80244; active = well fitted falling curve with a large enough effect; inconclusive = small, poorly fitted or top-dose-only effect; inactive = no such curve, though single readings can be large or run the other way; further: potency means the concentration at half of the fitted maximal effect; the source files actives as falling curves though it sought activators and does not explain the sign; nearly all actives have a fitted effect of over 65% in size; many hits overshoot -100%
Target sequence (P80244 whole entry, looked up): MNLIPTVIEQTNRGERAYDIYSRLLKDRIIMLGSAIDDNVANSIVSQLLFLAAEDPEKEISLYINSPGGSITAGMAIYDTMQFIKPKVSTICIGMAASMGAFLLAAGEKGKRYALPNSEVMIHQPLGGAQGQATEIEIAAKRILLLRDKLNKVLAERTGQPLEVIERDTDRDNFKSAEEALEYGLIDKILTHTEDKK
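Buffer: 100 mM Tris/HCl pH8, 100 mM KCl, 0.05% low protease BSA, 2.5% glycerol, 0.01% Tween-20. ClpP 10 microg/mL final; 20 min RT; delta FRET normalized to ADEP and DMSO controls.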
PINK1 modulator: changes PINK1 expression | AID 624263 | PINK1 immunofluorescence, high-content cytometry, 24 h | Potency, µM (top dose mostly 76.6 µM), inactives show at the highest dose activation (PINK1 increase), hits mostly activators | 410,000 compounds, 0.2% hits; active = well fitted activation curve with a large enough effect; inconclusive = small, poorly fitted or top-dose-only effect; inactive = flat fitted curve, though single readings scatter; cell line not stated here;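 further: potency means the concentration at half of the fitted maximal effect; % of control where 0% means no effect; nearly all actives have a fitted effect of over 65% in size; a mitochondrial uncoupler was the plate control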
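PINK1 protein, normally rapidly degraded, was detected by immunofluorescence after 24 hour compound treatment of a stable cell line. Titration data (5 concentrations) came from laser-scanning cytometry, with CCCP-treated wells as controls.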
* hit, by the source's call; ? = inconclusive; · = not tested or not shown; [ ] = another dose, or the depositor's remark. Compounds as they come; 4.4% or so of the library scored in one or more.

SMILES	Menin MLL FP FL	Sfp inh	TRPML1 inh	TRPML1 ag	TRPV1 potentiator	ClpP mod	PINK1 modulator
CCN(Cc1ccccc1)C(=O)C1CCN(C/C(C)=C/c2ccccc2)CC1	3.7	-1%	-23	?	-2	2.4%	2.4%
Cc1nnc(NC(=O)C2CCCN(S(=O)(=O)c3ccccc3C(F)(F)F)C2)s1 (configuration not stated)	-0.2	-26%	-7	-0.3	2	-0.8%	-0.4%
CCOC(=O)c1ccc(Nc2cc3ccccc3c(=O)[nH]2)cc1	·	·	30	-0.5	·	-24%	3.1%
CC1CCC(NC(=O)COC(=O)c2n[nH]c(=O)c3ccccc23)CC1 (configuration not stated)	·	·	10	0.4	8	1.1%	-0.3%
Cc1cc(C(=O)CSc2nc3ccccc3o2)c(C)n1CC1CCCO1 (configuration not stated)	-1.3	-3%	9	0.0	-10	28µM*	-1.9%
Cc1nnc(C)c2c(C)n(-c3ccc(Br)cc3)c(C)c12	2.7	5%	·	·	-1	·	·
Cc1cc(C)n(-c2nc3ccccc3c(=O)n2OCC(=O)N(C)C)n1	-2.9	16%	-16	0.3	4	7.9µM*	2.2%
CCCNC(=O)CC1Sc2ccccc2NC1=O (configuration not stated)	0.5	-1%	-1	-0.4	-2	0.1%	?
COc1ccc(C(CNC(=O)COc2ccccc2C)N2CCCC2)cc1 (configuration not stated)	0.1	-2%	-6	-0.1	-18	-1.2%	-2.1%
Cc1cc(C)c(NC(=O)COC(=O)c2c(C)noc2C)c(Cl)c1	·	·	-8	-0.7	-1	-1.2%	4.0%
Cc1nc(C)c(C(=O)OCC(=O)NCCc2ccc(S(N)(=O)=O)cc2)s1	·	·	13	0.0	23	-1.3%	-1.6%
CCS(=O)c1ccccc1C(=O)O (configuration not stated)	1.1	2%	-7	1.6	-2	-2.5%	0.1%
C=C(C)C1CC=C(C)/C(=N/NC(=O)c2ccccc2[N+](=O)[O-])C1 (configuration not stated)	4.7	6%	4	2.0	-13	·	1.2%
CCC(C)NC(=O)C1CCCN1S(=O)(=O)c1ccc(Cl)cc1 (configuration not stated)	5.4	-8%	15	-0.4	23	0.1%	0.0%[38.3 µM]
O=c1[nH][nH]c2c1C(C1CCCCC1)OC(C1CCCCC1)C2 (configuration not stated)	·	·	·	-0.5	·	-0.3%	18%
CSc1nc(-c2ccco2)cc(-c2ccccc2)c1C#N	10	-16%	0	-0.6	13	?	6.7%
CCCCn1c(=O)[nH]c(=O)c2c1nc(-c1ccc(-c3ccccc3)cc1)n2C	6.6	14%	-4	-0.5	-1	·	-0.3%
CN(C)/C=C/C(=O)c1cccc([N+](=O)[O-])c1	-1.3	-11%	-4	0.2	1	·	-0.5%
COc1ccc(S(=O)(=O)NCc2ccco2)cc1NC(=O)c1ccccc1	0.5	0%	1	0.1	0	·	1.3%
CC1=Nc2cccc([N+](=O)[O-])c2NC(=O)C1	0.7	14%	-10	3.3	1	1.3%	0.3%
Cc1onc(-c2c(F)cccc2Cl)c1C(=O)OCn1nnc2ccccc2c1=O	2.2	0%	35	3.3	-46	1.9%	-2.1%
COCCCNC(=O)CSc1nc(-c2ccc(OC)c(OC)c2)[nH]c1-c1ccc(F)cc1	·	·	12	-0.2	·	-25%	0.8%
Cn1nc(C(=O)Nc2sc3c(c2C#N)CCCC3)ccc1=O	2.3	-13%	-2	0.5	-16	·	-0.5%
CCCCCCNc1nc(Cl)nc(NC(C)(C)CO)n1	9.6	7%	7	0.4	·	·	1.7%
CCOC(=O)c1cccc(NC(=O)CSc2nnc(-c3cccnc3)n2C)c1	-0.3	9%	9	0.7	-1	-0.9%	0.9%
Further entries:
SMILES	Menin MLL FP FL	Sfp inh	TRPML1 inh	TRPML1 ag	TRPV1 potentiator	ClpP mod	PINK1 modulator
OCc1cn(-c2ccccc2)nc1-c1ccc(Br)cc1	0.0	8%	-29	0.8	-2	-2.8%	7.2%
Cc1ccccc1C(=O)Nc1ccnn1C1CCN(Cc2cnn(C)c2)CC1	2.8	-10%	-1	-0.2	13	1.5%	-1.0%
COc1cc(NC(=O)CCNS(=O)(=O)c2ccc3c(c2)CCN3C(=O)C2CC2)cc(OC)c1	·	·	13	-0.1	·	0.8%	-3.0%
CN(CC(=O)N1CCCCCC1)S(=O)(=O)c1ccc(Br)s1	0.9	-7%	-12	-0.4	-27	36%	2.2%
CCc1cc2c(-c3ccccc3)cc(=O)oc2cc1OCC(C)=O	2.7	2%	-3	2.8	-3	-3.4%	-1.5%
COCCNC(=O)c1onc(CSc2nc3ccccc3[nH]2)c1C(=O)NCCOC	0.0	9%	-16	-0.2	-4	-1.3%	-0.1%
CC1CC(NC(=O)/C(C#N)=C/c2ccc[nH]2)CC(C)(C)C1 (configuration not stated)	3.3	13%	35	5.7	-2	1.6%	?
CC1CCN(C(=O)COC(=O)c2ccc(F)c(S(=O)(=O)N3CCOCC3)c2)CC1	·	8%	2	0.9	-32	2.7%	1.6%
Cc1cc(NC(=O)C2CCCCC2)ncc1NC(=O)c1ccccn1	6.9	-13%	-15	-0.3	5	0.4%	1.1%
COC(=O)c1cccc(NC(=O)CSCc2ccccc2)c1	0.3	17%	-7	0.7	-2	-4.2%	1.3%
COc1cccc(/C=N/Nc2ccc(S(=O)(=O)O)cc2)c1O	2.7	?	21	2.8	-1	-8.4%	-3.8%[38.3 µM]
CSCC[C@H](NC(=O)Nc1ccc(C)cc1C)C(=O)O	18	-12%	3	-0.4	6	0.8%	1.3%
COc1cccc(NC(=O)N2CCC(NC(=O)C(Cc3ccccc3F)NC(C)=O)CC2)c1 (configuration not stated)	·	32%	-18	1.1	-5	-0.1%	-0.8%
CCn1cc(CN2CCC(C(=O)Nc3cccc(-c4cccc(Cl)c4)c3)CC2)cn1	1.6	-3%	0	-0.6	8	0.5%	-0.7%
Cc1ccccc1C(=O)NCc1ccncc1	6.2	11%	3	-0.6	11	-1.5%	1.4%
Cc1sc2ncn(CC(=O)N3CCN(c4ccc(F)cc4)CC3)c(=O)c2c1S(=O)(=O)N1CCOCC1	-2.7	9%	2	-0.3	0	·	2.0%
CCCn1cc(S(=O)(=O)c2ccccc2)c(=O)c2cc(F)c(N3CCCC(C)C3)cc21 (configuration not stated)	·	·	12	2.0	·	-23%	-1.0%
CC(=O)NS(=O)(=O)c1ccc(NC(=S)NC(=O)C(C)C)cc1	1.1	5%	-13	-0.7	26	1.7%	2.4%
O=C(COc1ccc(S(=O)(=O)Nc2ccccc2)cc1)NCc1cccnc1	1.1	-5%	7	-0.7	-7	1.0%	-0.6%
Cc1ccc(CCN2CC(C(=O)NCCN3CCOCC3)CC2=O)cc1 (configuration not stated)	0.1	-7%	-16	-0.4	15	0.8%	2.7%
COc1ccccc1C(=O)N/C(=C\c1ccc(Br)cc1)C(=O)NCCC(=O)O	0.0	-2%	-4	0.7	-9	·	-1.4%
COc1ccc(CN(CCN(C)C)Cc2ccccc2)c(OC)c1	2.0	?	35	-0.2	-5	0.8%	-2.4%
Cc1cc(NC(=O)c2ccc3nc(C)sc3c2)no1	-0.3	9%	-15	-0.1	-2	-4.5%	·
CC(Sc1nc(N2CCCCC2)c2c(c1C#N)CCCC2)C(=O)O (configuration not stated)	-0.3	-3%	-3	-0.4	-3	-3.8%	-3.4%
COc1cc(-c2cc(OC)c3c(C)oc(C)c3c(=O)c2)ccc1OC(=O)c1ccc(C)cc1	·	·	22	2.1	·	0.3%	2.4%
More records follow:
SMILES	Menin MLL FP FL	Sfp inh	TRPML1 inh	TRPML1 ag	TRPV1 potentiator	ClpP mod	PINK1 modulator
Cc1ccc(CN2CCC(C)(Oc3cccc(Cl)c3)C2)cc1 (configuration not stated)	·	·	·	-0.9	·	0.5%	13%
COc1cccc(OCC(=O)NCCS(=O)(=O)N2CCN(c3ccccc3)CC2)c1	·	·	6	-1.1	·	-0.4%	2.8%
COc1ccccc1N(CC(=O)NC(C)C)S(=O)(=O)c1cccs1	-2.9	11%	10	0.6	8	-2.9%	0.4%
COc1ccc(-c2nc(C)c(CCNC(=O)C(=O)Nc3ccccc3OC)s2)cc1	·	·	12	5.0	·	22%	2.1%
CN(Cc1ccccc1)C(=O)c1[nH]cnc1C(=O)NCc1ccccc1	·	·	-10	-0.1	0	1.9%	-1.0%
O=C(O)c1ccc(NC(=O)c2cccc(NC(=O)c3cccs3)c2)cc1	3.0	19%	19	0.8	-1	-2.0%	2.5%
CC(=O)Nc1ccc(S(=O)(=O)N2CCN(S(=O)(=O)N3CCOCC3)CC2)cc1	-7.8	3%	-4	0.4	-25	·	-1.6%
CCOC(=O)c1c(N2C(=O)CC(Sc3ccccc3C(=O)O)C2=O)sc2c1CCCC2 (configuration not stated)	-1.9	3.5µM*	-18	-0.7	1	·	0.1%
CC1CCCC(C(=O)O)N1C(=O)CCS (configuration not stated)	-3.6	?	12	-0.4	-4	-1.5%	-1.4%
CC1=C(C(=O)NC2CCCc3c2cnn3-c2cc(F)cc(F)c2)OCCO1 (configuration not stated)	·	20%	13	-0.5	1	-2.8%	-1.1%
Cc1ccccc1-n1c(O)c(C=NC2CCS(=O)(=O)C2)c2ccccc2c1=O (configuration not stated)	1.6	11%	15	4.8	-7	-3.9%	0.6%
CCC1CCCCN1CCCNC(=O)c1cc2c(=O)[nH]c3ccccc3c2n1C (configuration not stated)	2.2	-1%	4	3.7	-3	4.3%	-0.4%
O=C(Nc1ccc2c(c1)CCC2)c1cccs1	3.8	11%	-5	0.4	-13	0.3%	-0.8%
O=C(c1ccc2c(c1)[nH]c(=S)n1c3ccccc3nc21)N1CCN(c2cccc(Cl)c2)CC1	1.9	-12%	26	0.7	27	0.2%	-1.5%
CC1(C)CC(=O)C2=C(C1)N(c1ccc(F)cc1)C(=O)CC2c1ccsc1 (configuration not stated)	-2.8	13%	6	-0.8	-25	0.9%	2.6%
